Source: PubChem (National Center for Advancing Translational Sciences (NCATS))
hNpr1 antagonist: human Npr1 receptor antagonism; P16066; HEK293 hNpr1 GloSensor cGMP, ANP-stimulated luminescence; Potency, µM (highest dose often 46.3 µM), without a hit: at the top dose activity change, negative = inhibition, usual class: inhibitors; hit rate 1.6% among 76,000; AID 1347048; active = well fitted inhibition curve with a large enough effect; inconclusive = small, poorly fitted or top-dose-only effect; inactive = no such curve, though single readings can be large or run the other way;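 also: nearly all actives have a fitted effect of over 60% in size; nearly all hits also lower the signal before the agonist is added; a reference antagonist and vehicle were the controls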
Target sequence (P16066 whole entry, looked up): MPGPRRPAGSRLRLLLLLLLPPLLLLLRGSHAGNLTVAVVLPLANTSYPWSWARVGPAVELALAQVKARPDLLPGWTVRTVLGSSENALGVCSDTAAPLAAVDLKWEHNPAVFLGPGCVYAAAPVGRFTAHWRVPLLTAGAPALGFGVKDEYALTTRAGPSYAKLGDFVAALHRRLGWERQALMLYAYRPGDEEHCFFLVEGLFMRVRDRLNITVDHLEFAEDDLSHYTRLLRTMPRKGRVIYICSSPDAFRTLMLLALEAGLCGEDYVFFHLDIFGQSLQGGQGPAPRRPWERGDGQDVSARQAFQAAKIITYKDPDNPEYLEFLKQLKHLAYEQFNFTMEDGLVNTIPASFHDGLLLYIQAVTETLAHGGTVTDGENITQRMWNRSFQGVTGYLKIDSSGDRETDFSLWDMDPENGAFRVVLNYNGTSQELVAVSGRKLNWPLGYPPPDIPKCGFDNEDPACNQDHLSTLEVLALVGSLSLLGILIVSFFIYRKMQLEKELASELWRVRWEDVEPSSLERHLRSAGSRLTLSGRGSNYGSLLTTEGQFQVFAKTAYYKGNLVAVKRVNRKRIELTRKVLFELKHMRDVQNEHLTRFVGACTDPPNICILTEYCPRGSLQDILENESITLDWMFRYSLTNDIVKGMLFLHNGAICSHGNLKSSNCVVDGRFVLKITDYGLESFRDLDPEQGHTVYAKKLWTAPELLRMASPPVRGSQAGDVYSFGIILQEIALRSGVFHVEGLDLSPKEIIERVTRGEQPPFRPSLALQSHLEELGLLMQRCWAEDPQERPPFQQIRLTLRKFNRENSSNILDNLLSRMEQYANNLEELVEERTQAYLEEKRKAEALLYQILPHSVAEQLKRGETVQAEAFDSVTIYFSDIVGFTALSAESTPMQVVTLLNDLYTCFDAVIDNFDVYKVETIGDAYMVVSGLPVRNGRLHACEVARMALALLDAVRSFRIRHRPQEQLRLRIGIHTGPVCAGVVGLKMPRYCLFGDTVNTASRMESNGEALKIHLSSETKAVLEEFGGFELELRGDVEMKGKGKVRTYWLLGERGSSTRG
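Compound pre-incubated 30 min at room temperature on GloSensor-loaded HEK293 cells stably carrying hNpr1 and the pGS-40F cGMP biosensor. Stimulation uses hNppA at 0.1 nM final; luminescence is taken at baseline and 20 min post-agonist.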
The depositor's hits bear a star; ? = inconclusive; & = joins results of further samples; [ ] = another dose, or the depositor's remark. % is scaled to controls: 0 for no effect and ±100 for the full control effect; potency is read from the fitted curve at half-maximal effect.

| structure | hNpr1 antagonist |
| --- | --- |
| CC(C)(C)NS(=O)(=O)c1ccccc1-c1nc(N)nc2c1CCC2 | -2% |
| CCOCCOC1CCN(C(=O)NCc2ccccc2)CC1 | 0% |
| Cn1nccc1C(=O)N1CCCN(S(=O)(=O)c2ccccc2)CCC(=O)NCC1 | 0% |
| CCOc1cccc(CNC(=O)CCC2CCCN(S(=O)(=O)c3ccc(C)cc3)C2)c1 (configuration not stated) | 0% |
| O=C(CCc1nnn2c1CN(C(=O)COc1ccc(F)cc1)CC2)NCc1ccccc1 | 2% |
| COCCN1C(=O)CO[C@H]2CN(S(C)(=O)=O)C[C@H]21 | 4%[70.6 µM] |
| COc1cc(Cl)ccc1C(=O)N[C@@H]1CN(c2ccncn2)C[C@H]1CN(C)C | 8% |
| O=C(NC1CCCCC1)N1C[C@@H]2C[C@H](C1)c1c(-c3ccc4ccccc4c3)ccc(=O)n1C2 | 7% |
| CCC1(N2CCN(S(=O)(=O)c3cc(F)ccc3C)CC2)CCN(C(=O)NC)C1 (configuration not stated) | -2% |
| CCc1nc(CN2CCC(N3CCCC(C(=O)NCc4ccccn4)C3)CC2)no1 (configuration not stated) | 2% |
| O=S(=O)(Cc1ccccc1)N1CCC(c2nc(CCOc3ccc(F)cc3)no2)C1 (configuration not stated) | ? |
| CCC1(O)CCC12CCN(C(=O)c1ccc(C)nc1)CC2 (configuration not stated) | 3% |
| Cc1cc2c(-c3cccc(O)c3)nc(-c3c(C)noc3C)cc2[nH]1 | -22%[70.6 µM] |
| Clc1ccc(Nc2ncncc2-c2nc(-c3ccccc3)no2)cc1 | -2% |
| Cn1nc2n(c1=O)CCN(C(=O)Cc1ccsc1)CC2 | 1% |
| O=C(NC1CCC(O)CC1)c1ccc(-c2ncc3cnc(-c4cccc(F)c4)cn23)cc1 (configuration not stated) | -3%[70.6 µM] |
| CC(C(=O)NCc1cccnc1N(C)CCc1ccccn1)n1cccc1 (configuration not stated) | 1% |
| O=C(C1CCCC1)N1CCN(c2cc(-c3ccccc3)[nH]n2)CC1 | 5% |
| COc1ccc(C(=O)N2CC3(COCC(=O)N(Cc4ccccc4)C3)C2)cc1 | -4%[70.6 µM] |
| CC(C)Oc1cccc2c1c(NC(=O)CN1CCCC1=O)nn2-c1cccc(F)c1 | 4% |
| CCC(=O)N(C1CCOCC1)C1CCN(S(=O)(=O)c2ccc(C)c(C)c2)CC1 | -6% |
| CCC(COC)NC(=O)c1c(C)noc1-c1ccc(C(C)(C)C)cc1 (configuration not stated) | 1% |
| Cc1nc(N2CCCCC2)n(CC(=O)Nc2ccc(Br)cc2F)c(=O)c1C | -3% |
| COc1ccc(C[C@H](NC(=O)[C@@]2(O)C[C@@H](O)[C@H](O)[C@@H](NC(=O)Nc3ccc(OC(F)(F)F)cc3)C2)C(N)=O)cc1 | -1% |
| COCCN1C(=O)Cc2ccccc2C1C(=O)N(C)Cc1ccco1 (configuration not stated) | -2% |
| Cc1ccc(C(=O)N2CCC(n3nccc3NC(=O)C3CCOC3)CC2)cc1C (configuration not stated) | 0% |
| CC[C@H]1CN(S(=O)(=O)c2ccccc2)CC[C@H]1CC(=O)O | -3%[70.6 µM] |
| CN(C)c1nc2c(c(=O)[nH]1)CCN(Cc1ccc(Br)cc1)CC2 | -2% |
| O=C(NC1C[C@H]2CC[C@@H](C1)N2C(=O)c1cccs1)c1ccncc1 (some centres not stated) | 5% |
| O=C(CC1CCN(C(=O)c2ccc(F)c(F)c2)C1)NCc1ccccc1 (configuration not stated) | 5% |
| C[C@@]1(O)CCN(Cc2ccccc2F)C[C@H]1N1CCCC1 | -4% |
| O=C(NC1CC1)c1cc(Br)cn2ccnc12 | -9%&6%[70.6 µM] |
| CC(C)OCCNc1nccc(C2(c3ccccc3Cl)CCNCC2)n1 | -1% |
| Cc1cc(C)cc(NC(=O)Cn2c(N3CCc4ccccc4C3)nc(C)cc2=O)c1 | 6% |
| COc1ccc(C(=O)N[C@H]2CO[C@H]3[C@@H]2OC[C@@H]3Nc2nccc(C(C)(C)C)n2)cc1 | ? |
| CN(c1cc(=O)c2ccnc(N3CCOCC3)c2o1)C1CCOCC1 | 3%[70.6 µM] |
| COC(=O)CC1CCN(C(=O)C2CC(=O)N(c3n[nH]c4ccccc34)C2)CC1 (configuration not stated) | -2% |
| O=C1NCCCCCN(C(=O)C2CCC2)[C@H]2CCCC[C@@H]12 | 7% |
| O=C(Cc1cccc(F)c1)N1CCC(N2CC3CC(C2)[C@H]2CCCC(=O)N2C3)CC1 (some centres not stated) | -1% |
| C#CCNC(=O)C[C@@H]1c2nc(NC(=O)OCC=C)sc2C[C@@H]2[C@](C)(CO)[C@H](O)CC[C@]21C | 5% |
| COC(=O)c1sccc1NC(=O)N1CCCCCCNC(=O)CC1 | -1% |
| CN(C)c1cccc(C(=O)NC2CCN(c3cc(-c4ccc(Cl)cc4)[nH]n3)CC2)c1 | ? |
| COc1ccccc1N1CCCc2ncc(C(=O)N3CCN(C(C)=O)CC3)cc21 | 7%[70.6 µM] |
| COc1cc(=O)n2c(c1C(=O)Nc1cccc(C)c1)CCCC2 | 0% |
| COC(=O)CNC(=O)c1cc(Br)cn2ccnc12 | -1%[70.6 µM] |
| Cc1ccccc1C(CNC(=O)c1cc(-c2ccc(F)cc2)n[nH]1)N(C)C (configuration not stated) | -1% |
| COC1CCC12CCNCC2 (configuration not stated) | 6% |
| CC(C)c1ccc(-n2cc(CN3CCN(C(=O)N(C)C)CC3)cn2)cc1 | -30% |
| CC(=O)N1CCC(N2CC[C@@H]3C(=O)NCCCCCCN(Cc4ccncc4)[C@@H]3C2)CC1 | 7% |
| CC(=O)N1CCCC(c2nn(C)c(=O)n2Cc2ccccc2)C1 (configuration not stated) | 2% |
| Cc1cnc(C2CC2)n1CC1CCN(C(=O)C(C)C)CC1 | 0% |
| O=C(c1cccc(Cl)c1)N1CC(CNc2cccnc2)C2(C1)CN(c1ccccc1)C2 (configuration not stated) | -3%[70.6 µM] |
| Cn1cccc1CN1CCCCCCNC(=O)[C@@H]2CCC[C@@H]21 | 3% |
| O=C1CC(c2ccccc2)N(S(=O)(=O)c2cccs2)CCCCCN1 (configuration not stated) | -1% |
| COc1ccc(C(=O)N2CCC(C3CCN(S(C)(=O)=O)CC3)C2)cn1 (configuration not stated) | -4% |
| O=C(C1CCCC1)N1CCCCCC1c1nc(-c2cccnc2)no1 (configuration not stated) | -1% |

Other results follow.
| structure | hNpr1 antagonist |
| --- | --- |
| Cc1noc(C)c1CN1CCC2(CC1)COCCN2C(=O)c1ccccc1 | 3%[70.6 µM] |
| O=C(Nc1cc(Cl)cc(Cl)c1)N1CCCC1c1nncn1C1CCCC1 (configuration not stated) | -13% |
| O=C(NC1CCCC1)C1c2ccccc2C(=O)N(C2CCCC2)C12CCCCC2 (configuration not stated) | 6% |
| Cc1ccc(C2=NC3(CCN(C(=O)COc4ccccc4)CC3)ON2)cc1 | -12% |
| CCNC(=O)NC[C@H]1O[C@H](Cc2cc(C(C)(C)C)on2)CC[C@@H]1O | 0%[70.6 µM] |
| COc1ccc(NC(=O)NC[C@@H]2C=C(C)[C@H](CC(=O)NCCN(C)C)C[C@H]2C(C)C)cc1 | -11% |
| Cc1cc(C)c2nonc2c1S(=O)(=O)N1C[C@@H](N(C)C)[C@H](C(C)C)C1 | 2% |
| COc1ccc(C(=O)N[C@H]2COC[C@H]2Cc2cc(C)no2)c(OC)n1 | 2% |
| O=C1N(c2ccc(F)cc2)CCOC12CCN(Cc1ccccc1Cl)CC2 | -2%[70.6 µM] |
| Cc1cc(=O)n(CC(=O)NCc2ccc(F)cc2)c(N2CCc3ccccc3C2)n1 | -25% |
| CC(NC(=O)c1ccc(C(C)(C)C)cc1)C(=O)N1CCN(c2ccccn2)CC1 (configuration not stated) | 2% |
| Cc1noc(C)c1[S+](=O)([O-])N1CCCC2(C1)NC(=O)c1ccccc1O2 (configuration not stated) | 25% |
| CN1Cc2ncnc(NCCc3ccc(F)cc3)c2CN(c2ccc(Cl)cc2)C1=O | -22% |
| Cc1c(CC(=O)NCC2CCCOC2)c2c(n1CC(C)C)CC(C)(C)CC2=O (configuration not stated) | 0% |
| Cn1c(CN2CCN(c3ccc(C#N)cn3)CC2)nnc1C1CC(N)C1 (configuration not stated) | 3% |
| CC(=O)Nc1ccc(-c2c(-c3cccc(C)c3)nn(-c3ccc(F)cc3)c2OC(C)=O)cc1 | ? |
| O=C(O)c1cnc2c(c1)n(CCN1CCCC1)c(=O)n2CCc1ccccn1 | 5% |
| O=C(CCc1nc(-c2ccccc2)no1)NC1CCCN(CCCc2ccccc2)C1 (configuration not stated) | -9% |
| CN(C)C(=O)c1cccnc1OC1CCN(S(=O)(=O)c2cc(F)cc(F)c2)C1 (configuration not stated) | 0% |
| COc1ccc(CN2CC3(CCN(C(=O)Nc4ccc(OC)cc4OC)CC3)C2=O)cc1 | -16% |
| COc1ccccc1[C@@H]1CN(C(=O)CCc2ccncc2)C[C@H]1C(=O)O | 6% |
| Cc1cc(C(=O)NCC2Cn3cccc3C(=O)N2Cc2ccccc2)n(C)n1 (configuration not stated) | -16% |
| CN1C(=O)COC[C@@H]1[C@H](O)c1ccc(NC(=O)c2ccc3c(c2)OCO3)cc1 | 2%[70.6 µM] |
| Cc1ccc(C(=O)N2CCC(N3C(=O)C4(CCCC4)C3c3scnc3C)CC2)cn1 (configuration not stated) | 0% |
| CC1CCN(CC2CCCCCN2C(=O)CC2CCCC2)CC1 (configuration not stated) | 0% |
| O=C1c2cnc(-c3ccc(Cl)cc3)nc2OCCN1Cc1ccccc1 | 32µM* |
| CCCCS(=O)(=O)N1C[C@@H](C(N)=O)[C@H](C2CCN(C)CC2)C1 | 8% |
| Cc1cn2nc(C(=O)N3CCC(NC(=O)c4cccc(N(C)C)c4)CC3)cc2c(=O)[nH]1 | 0% |
| CN(CCc1ccccc1)[C@@H]1[C@H](O)[C@H](CO)O[C@@H]1CNS(=O)(=O)c1ccccc1 | 1% |
| Cc1c(Cn2ccnc2-c2cc(C#CCO)cs2)oc2ccccc12 | -3% |
| COc1cccc([S+](=O)([O-])N2CCC3(C2)OC(=O)Nc2cnccc23)c1 (configuration not stated) | 0% |
| O=C([C@H]1CCC[C@@H](O)C1)N1CCN(C2Cc3ccccc3C2)CC1 | 1% |
| COCCN1CCOC[C@H]2CCN(C(=O)c3ccoc3)C[C@H]21 | 5% |
| CCc1nc2c(c(-c3ccc(O)cc3)n1)CN(Cc1cccc(C(F)(F)F)c1)CC2 | -25% |
| COc1ccc(Cl)cc1NC(=O)c1c(OC)cc(=O)n2c1CCCC2 | -3% |
| C[C@@H](NC(=O)C1=C[C@@H](NS(=O)(=O)c2cccc(C(F)(F)F)c2)[C@@H](O)[C@H](O)C1)C(N)=O | 0% |
| O=C(Cc1ccc(F)cc1)N1CCN(c2cc(-c3ccc(Cl)cc3)[nH]n2)CC1 | ? |
| CN1CCOc2c(C(=O)NCC[S+](C)(=O)[O-])cc(-c3ccccc3F)cc21 | -12%[70.6 µM] |
| O=C(O)C[C@@H]1CCN(C(=O)C2CCCC2)C[C@@H]1CCN1CCN(c2ccccc2)CC1 | 16%[70.6 µM] |
| COc1cc(NC(=O)Cn2c(N3CCc4ccccc4C3)nc(C)cc2=O)cc(OC)c1OC | 0% |
| CC(C)c1noc(-c2cn(C3CCN(C(=O)c4ccco4)CC3)nn2)n1 | 1% |
| c1ccc(-c2ccc3ncc(Nc4ccccn4)n3n2)cc1 | -23%[70.6 µM] |
| CN(C)S(=O)(=O)N1CCC(N2C(=O)C3(CCCCC3)C2c2ccccc2)CC1 (configuration not stated) | 4% |
| CC(C)CN1CCN(C2CCOC3(CCN(S(=O)(=O)c4cccs4)CC3)C2)CC1 (configuration not stated) | -2% |
| COCC1CN(C(=O)CN2CCCC2=O)CC12CCNCC2 (configuration not stated) | -3% |
| CCN1CCc2[nH]cnc2C12CCN(C(=O)c1cccnc1SC)CC2 | 4% |
| O=C(NC[C@H]1O[C@H](Cc2cc(-c3ccccc3)on2)CC[C@@H]1O)c1ccccc1F | 2%[70.6 µM] |
| Cc1cc(C(=O)N2C[C@@H]3CCCN4CCC[C@@H]([C@H]34)[C@H]2CCCC(=O)NCc2ccccc2)nn1C | 7% |
| COCC1CN(Cc2ccc(C(C)C)cc2)CC12CCNCC2 (configuration not stated) | -10% |
| O=C(CC1CCCCC1)N1CCCC(CN2CCCC2)C1 (configuration not stated) | 7% |

Not all compounds are listed; rates above refer to the full screens.
